# TRPML1 inh: inhibitors of human TRPML1 channel; hit rate 0.02% among 390,000; AID 624415; TRPML1-inducible cells, Ca2+ dye fluorescence, FDSS; stronger effect = lower value; inhibition of EC80 agonist-evoked calcium signal; Q9GZU1; activity change, negative = inhibition, % (no concentration beside the values); in the data active means activity change below about -50%; inconclusive means about -30% to -50%; inactive means above about -30%;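 also: stimulus is agonist 54-4 at its EC80 concentration; % is scaled to controls: 0 for no effect and ±100 for the full control effect; compound concentration not given in the record; the text of the record puts the active cut at -80%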
# Target sequence (Q9GZU1 whole entry, looked up): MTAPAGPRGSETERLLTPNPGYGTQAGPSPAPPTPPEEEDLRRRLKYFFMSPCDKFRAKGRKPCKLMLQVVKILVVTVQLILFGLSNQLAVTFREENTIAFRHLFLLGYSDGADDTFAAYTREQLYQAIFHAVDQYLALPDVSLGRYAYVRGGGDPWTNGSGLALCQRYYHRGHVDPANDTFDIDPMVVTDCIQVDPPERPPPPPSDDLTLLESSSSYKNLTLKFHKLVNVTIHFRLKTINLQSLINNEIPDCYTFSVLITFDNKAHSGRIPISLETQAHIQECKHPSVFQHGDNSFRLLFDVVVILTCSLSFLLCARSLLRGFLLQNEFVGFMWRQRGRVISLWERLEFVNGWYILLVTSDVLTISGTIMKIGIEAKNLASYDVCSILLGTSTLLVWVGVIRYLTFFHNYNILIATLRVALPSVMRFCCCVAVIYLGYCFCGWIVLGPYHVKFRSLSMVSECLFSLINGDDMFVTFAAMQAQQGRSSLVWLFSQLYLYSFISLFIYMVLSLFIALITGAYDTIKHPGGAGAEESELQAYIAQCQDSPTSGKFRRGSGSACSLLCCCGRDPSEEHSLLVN
#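 Tet-induced TRPML1-DL cells loaded with Ca8 no-wash calcium dye were read kinetically on FDSS. Compound addition was followed by EC80 agonist 54-4 (4 uM final); inhibition was read over 110 s.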
# Six1-Eya2 blk: Six1/Eya2 interaction inhibition; AlphaScreen GST-Six1/His-Eya2 binding, biochemical; stronger effect = lower value; control for the full effect not named in the record; activity change, % (test concentration not listed); hit rate 0.56% among 360,000; AID 651725; in the data active = activity change below about -65%; inconclusive = about -30% to -65%; inactive = above about -30%; also: % is scaled to controls: 0 for no effect and ±100 for the full control effect; compound concentration not given in the record
#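 Six1/Eya2 binding was read as AlphaScreen signal after compounds were pinned into GST-Six1 plus His-tagged Eya2 (5X stock 250/500 nM) in pH 8.0 Tris/NaCl/TCEP buffer, beads added, then incubated 1 h, 37 C, dark.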
# CtBP-E1A blk: CtBP/E1A binding inhibition | AlphaScreen GST-E1A/His-CtBP binding, 1536-well; stronger effect = lower value; control for the full effect not named in the record | activity change, % (no concentration beside the values) | hit rate 0.49% among 340,000; in the data active means activity change below about -65%; inconclusive means about -30% to -65%; inactive means above about -30%; also: % is scaled to controls: 0 for no effect and ±100 for the full control effect; compound concentration not given in the record
#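 Protein mix (5X: 125 nM each GST-E1A, His-CtBP) was incubated with pinned compound 2 h at 37 deg C in dark, in 50 mM Tris pH 8.0 buffer with 300 mM NaCl. Glutathione donor and nickel acceptor beads followed; AlphaScreen signal read after 1 h.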
# D2 ag: human D2 receptor agonism in beta-arrestin assay | activation, % (test concentration not listed) | AID 624465 | hit rate 0.084% among 360,000 | DiscoveRx PathHunter D2 beta-arrestin, luminescence, 90 min; 100% = 57 uM dopamine signal; in the data active = activation above about 40%; inconclusive = about 15% to 40%; inactive = below about 15%; also: compound concentration not given in the record; the text of the record calls up to 30% inactive
# Target sequence (P14416 whole entry, looked up): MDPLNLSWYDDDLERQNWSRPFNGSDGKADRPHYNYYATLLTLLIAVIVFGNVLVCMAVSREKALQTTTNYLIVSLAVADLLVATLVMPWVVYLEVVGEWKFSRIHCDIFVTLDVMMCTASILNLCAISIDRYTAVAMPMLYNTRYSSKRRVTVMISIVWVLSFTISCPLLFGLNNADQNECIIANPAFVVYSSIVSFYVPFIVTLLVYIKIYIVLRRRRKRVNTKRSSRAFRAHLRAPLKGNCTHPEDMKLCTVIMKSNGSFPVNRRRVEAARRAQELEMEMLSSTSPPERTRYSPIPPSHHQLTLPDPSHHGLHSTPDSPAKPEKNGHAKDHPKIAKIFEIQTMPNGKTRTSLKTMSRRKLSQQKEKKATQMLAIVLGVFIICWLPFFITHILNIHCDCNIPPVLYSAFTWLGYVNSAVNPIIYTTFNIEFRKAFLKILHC
#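 DiscoveRx PathHunter D2 beta-arrestin cells (2,100/well) attached overnight, then compound-stimulated 90 min at 37 C in HBSS/10 mM HEPES/0.1% Tween-20 buffer; beta-galactosidase complementation read by luminescence after 1 h at ambient temperature. Dopamine 57 uM final (EC100) as control.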
# PINK1 expr mod: PINK1 expression modulation | Potency, µM (top dose mostly 76.6 µM), for the others: top-dose activation (PINK1 increase), most hits filed as activators | hit rate 0.2% among 410,000 | PINK1 immunofluorescence, high-content cytometry, 24 h; active = well fitted activation curve with a large enough effect; inconclusive = small, poorly fitted or top-dose-only effect; inactive = flat fitted curve, though single readings scatter; cell line not stated here;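 also: potency is read from the fitted curve at half-maximal effect; % of control where 0% means no effect; nearly all actives have a fitted effect of over 65% in size; a mitochondrial uncoupler was the plate control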
#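 Compound titrations (5 concentrations, 24 h) on a stable cell line; DMSO and CCCP controls. Endpoint: fixed-cell PINK1 immunofluorescence with mitochondrial, cell and nuclear markers, scanned by microplate cytometer.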
# TRPML1 agonist: human mucolipin-1 channel agonism | activation, % (test concentration not listed) | hit rate 0.12% among 410,000 | TRPML1-expressing cells, Ca2+ dye fluorescence, FDSS; host cell line not named in the record; reference of the full effect not given here | Q9GZU1; in the data active = activation above about 50%; inconclusive = about 30% to 50%; inactive = below about 30%; also: 0% is about no effect; the text of the record puts the active cut at 80%
#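 Agonist activity was taken from a 110 s kinetic Ca2+ dye read on the FDSS after pinning compounds onto TRPML1-DL cells. The cells were seeded at 1,500/well with Tet inducer, incubated about 16 h, then dye-loaded at room temperature.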
# The depositor's hits bear a star; x = no result given; & = joins results of further samples; [ ] = another dose, or the depositor's remark.
SMILES,TRPML1 inh,Six1-Eya2 blk,CtBP-E1A blk,D2 ag,PINK1 expr mod,TRPML1 agonist
COc1ccc(NC(=O)CCS(=O)(=O)c2cc3c(cc2C)NC(=O)CO3)cc1,13,-2,-5,-0.6,0.6%,-0.1
CCC(C)NC(=O)C1CCN(c2nc(OC)nc(OC)n2)CC1 (centres undefined),-5,3,2,-0.2,-1.2%,-0.2
COc1ccc(C)cc1S(=O)(=O)N1CC(C)OC(C)C1 (centres undefined),26,3,-1,-0.6,0.1%,1.0
Oc1ccc2ccccc2c1N=Nc1ccccn1,-12,-84*,-73*,6.2,-2.9%,0.8
CC(C)(C)c1csc(NC(=O)c2cccnc2)n1,5,-2,6,-5.1,5.3%,-0.5
O=C1c2ccccc2NC(c2ccco2)N1O (centres undefined),4,-3,-3,-1.4,-0.6%,-0.6
O=C(COC(=O)C1CC1)Nc1ccc(OC(F)F)cc1,-2,7,3,-1.5,-1.1%,-0.8
CC(C)(C)c1cc(CNC(=O)C2CCC(=O)N(Cc3ccccc3F)C2)[nH]n1 (centres undefined),-7,4,3,-1.5,-0.4%,0.1
CSc1ccc(OC2CCCCC2NS(=O)(=O)c2ccccc2)cc1 (centres undefined),-13,-9,-6,-5.8,-0.6%,2.9
CCC(=O)C1=C(c2ccc(C)cc2)N(C(=O)CC)n2c(nnc2C2CCCCC2)S1,23,x,x,x,1.0%,1.7
CCOC(=O)C(=CNc1ccccc1C)C(=O)OCC,9,4,3,-0.9,5.9%[38.3 µM],1.4
Cc1cccc(CC(=O)N2CCOCC2)c1,18,9,x,0.7,-0.1%,-0.7
COC(=O)c1ccc(NS(=O)(=O)c2c(C)[nH]c(C)c2C(=O)N2CCCC2)cc1,11,0,1,8.7,2.2%,0.3
Cc1c(Br)c(C(=O)NNC(=O)c2ccc(C(C)(C)C)cc2)nn1C,-11,-3,x,-4.6,0.7%,2.4
CCN(CC)CCCNC(=O)c1ccccc1NC(=O)C1=CSCCO1,-9,1,-8,-3.3,0.1%,-0.2
Cc1cc(N)n(-c2ccc(S(=O)(=O)c3ccc(C(C)C)cc3)cc2)n1,13,-4,0,4.5,6.2%,-0.3
O=C(NCc1cc(C(F)(F)F)cc(C(F)(F)F)c1)C1CC(c2ccccc2C(F)(F)F)=NO1 (centres undefined),25,0,0,-2.6,-0.3%,1.0
OC(COc1ccc2ccccc2c1)Cn1cncn1 (centres undefined),-3,-2,-1,-0.9,-0.5%,0.7
CC(=O)N/N=C/c1ccc(OCCOc2ccc(Br)cc2)cc1,-3,12,11,-1.6,-0.7%,-0.2
O=C(Nc1ccccc1)NN(C(=O)CCl)c1ccccc1,5,2,4,7.9,-1.0%,0.2

# Among those listed so far, two have an NH in an aromatic ring:
SMILES,TRPML1 inh,Six1-Eya2 blk,CtBP-E1A blk,D2 ag,PINK1 expr mod,TRPML1 agonist
CC(C)(C)c1cc(CNC(=O)C2CCC(=O)N(Cc3ccccc3F)C2)[nH]n1 (centres undefined),-7,4,3,-1.5,-0.4%,0.1
COC(=O)c1ccc(NS(=O)(=O)c2c(C)[nH]c(C)c2C(=O)N2CCCC2)cc1,11,0,1,8.7,2.2%,0.3

# Limited to D2 ag, TRPML1 agonist and Six1-Eya2 blk, for 2 of the compounds above:
compound	D2 ag	TRPML1 agonist	Six1-Eya2 blk
O=C(NCc1cc(C(F)(F)F)cc(C(F)(F)F)c1)C1CC(c2ccccc2C(F)(F)F)=NO1 (centres undefined)	-2.6	1.0	0
OC(COc1ccc2ccccc2c1)Cn1cncn1 (centres undefined)	-0.9	0.7	-2

# The listing continues.
SMILES,TRPML1 inh,Six1-Eya2 blk,CtBP-E1A blk,D2 ag,PINK1 expr mod,TRPML1 agonist
COc1cc(CC(=O)Nc2ccc(Cl)c(C(F)(F)F)c2)cc(OC)c1OC,43,6,-1,4.2,0.9%,2.5
C/C(=N\Nc1nc2ccc(Cl)cc2o1)c1ccccc1,-26,-9,-22,0.4,2.8%,1.8
CCCNC(=O)c1c(N)n(-c2ccc3c(c2)OCO3)c2nc3ccccc3nc12,3,3,0,-0.2,5.7%,-0.6
CCOC(=O)c1ccc(NC(=O)Cn2nc3c4ccccc4n(Cc4cccc(F)c4)cc-3c2=O)cc1,18,x,x,x,3.4%,3.7
NC(=O)CSc1nnc(-c2ccncc2)n1-c1ccc(Cl)cc1,2,-8,3,-7.6,-1.1%,-0.3
CCOc1ccc(/C=C/[N+](=O)[O-])c2ccccc12,-5,1,-3,-5.0,-4.7%[38.3 µM],11
CC1CCN(S(=O)(=O)c2cccc3cccnc23)CC1,-11,0,0,-3.2,2.3%,0.3
N#Cc1nc(-c2cccs2)oc1NCCCN1CCOCC1,-6,-4,5,-1.5,1.0%[38.3 µM],0.5
CCCn1c(N)c(Sc2ccccc2[N+](=O)[O-])c(=O)n(CCC)c1=O,14,-2,-14,-3.6,2.6%,0.3
CC(=O)Oc1ccc(/C=C(\NC(=O)c2ccco2)C(=O)NCc2ccccc2)cc1,-8,8,0,-4.1,2.1%,1.3
COc1cc(OC)cc(C(=O)N[C@H](C(=O)OCC(=O)N2CCN(S(=O)(=O)c3ccc(C)cc3)CC2)C(C)C)c1,3,-1,5,6.2,1.2%,-0.4
O=C(COC(=O)/C=C/c1ccccc1)NC1CCCCC1,28,0,14,-3.6,2.7%,5.8
COc1ccccc1C(=O)NCCC(=O)N1CCN(C(=O)c2ccco2)CC1,6,3,8,-1.2,-1.0%,-0.7
O=C(O)/C=C/c1ccccc1Oc1ccccc1,-6,1,-4,-0.3,-2.3%,4.3
CCOCCCNC(=O)C(c1ccc(OC)cc1)N(Cc1ccc2c(c1)OCO2)C(=O)c1ccccn1 (centres undefined),20,0,1,-3.8,-0.4%,0.2
CC(C)(C)n1nnnc1C(c1cc2cc3c(cc2[nH]c1=O)OCO3)N1CCN(c2ccccc2)CC1 (centres undefined),-2,-8,6,-3.7,-4.7%[38.3 µM],-0.3
C=CCOc1cc(C)nc(-c2ccccc2O)n1,-9,29,35,-1.0,-0.6%,-0.7
Cn1c(CSc2ncn[nH]2)nc2ccccc21,4,3,1,0.3,-0.9%,0.4
CCCNC(=O)c1cc(C2CCCCN2C(=O)c2cc(C(C)(C)C)nn2C)on1 (centres undefined),x,7,-3,9.1,0.3%,-0.7
CCc1ccc2oc(C(=O)N(Cc3ccc(N(C)C)cc3)Cc3ccco3)c(C)c2c1,15,x,x,x,3.6%,0.5
O=C(NCc1ccc(Cl)cc1)C(=O)NCC1OCCN1S(=O)(=O)c1ccc2c(c1)OCCO2 (centres undefined),1,0,-5,4.2,0.1%,-0.9
CN(C(=O)c1ccco1)c1nc(CC(=O)Nc2ccccc2)cs1,17,-13,-10,-1.0,-0.8%,1.0
COC1OC2COC(c3ccccc3)OC2C(OC(C)=O)C1OC(C)=O (centres undefined),17,8,5,-2.4,-3.0%,0.1
COc1ccc(N2CCN(C(CNC(=O)C(=O)NC3CCCC3)c3ccco3)CC2)cc1 (centres undefined),-11,8,4,-4.1,0.5%,-0.5
Cc1nc2sc(C(c3ccccc3)N3CCN(c4ccccc4F)CC3)c(O)n2n1 (centres undefined),16,-5,-8,-2.4,0.2%,-0.4
Cn1nnnc1SCC(=O)Nc1ccc2c(c1)OCO2,20,2,x,1.8,-0.4%,2.0
Cc1cccc(C(=O)Nc2sc3c(c2C(=O)Nc2ccccc2)CCC3)c1,6,x,x,x,-1.1%,-0.9
CC(C)C(=O)Nc1ccc(-c2nc3ncccc3o2)cc1,-1,-13,x,5.4,3.9%,-0.8
COc1ccc(CCCc2n[nH]c(=S)n2C)cc1C,16,2,-2,5.3,0.4%,0.6
O=C(CSc1nncs1)N1CCN(C(=O)c2ccco2)CC1,15,3,-3,-0.5,0.8%,0.6
O=C(NCc1ccccc1Cl)[C@H]1CCCN1C(=O)[C@H]1CCCN1,x,1,-1,x,-0.5%,-0.3
C/C(=N\Nc1nc(-c2cc(C)ccc2C)cs1)c1cc2ccccc2oc1=O,13,4,-1,0.2,1.0%,0.4
COc1ccc(CNC(=O)C2CCC(CNc3c(N4CCOCC4)c(=O)c3=O)CC2)cc1 (centres undefined),1&3,-15&0,0&3,0.3&-5.4,0.5%&0.8%,-0.6&-0.6
CCN(CC)C(=O)Cn1cc(SCC(=O)Nc2cc(C)on2)c2ccccc21,-18,1,6,-0.2,0.6%,0.5
CCOc1ccc(NC(=O)N2CCC(c3nc4ccccc4[nH]3)CC2)cc1,-15,-1,0,-1.3,0.5%,0.0
CCOc1cc(C(=O)NCCCNC(=O)c2cc(OCC)c(OCC)c(OCC)c2)cc(OCC)c1OCC,6,7,2,3.4,5.2%,1.6
Cc1cc2c(=O)n(C)c(SCC(=O)Nc3ccc(F)cc3)nc2s1,3,19,-7,-4.4,-0.7%,-0.1
COCCCNC(=O)c1[nH]c2ccccc2c1Sc1ccc(C)cc1,6,x,x,x,1.6%,0.5
Cc1[nH]c(=O)[nH]c(=O)c1/C=N/NC(=O)[C@H](C)N,-14,-66*,-30,-5.2,0.3%,-0.3
Cc1cccc(CCN2C(Nc3ccccc3)=NC[C@@H]2C)c1,-5,2,-7,-4.1,3.3%,15

# An excerpt of these results, with values under each structure.
# Value order – TRPML1 inh	Six1-Eya2 blk	CtBP-E1A blk	D2 ag	PINK1 expr mod	TRPML1 agonist
Cn1nnnc1SCC(=O)Nc1ccc2c(c1)OCO2
→ 20	2	x	1.8	-0.4%	2.0
Cc1cccc(C(=O)Nc2sc3c(c2C(=O)Nc2ccccc2)CCC3)c1
→ 6	x	x	x	-1.1%	-0.9

# Further results follow:
SMILES,TRPML1 inh,Six1-Eya2 blk,CtBP-E1A blk,D2 ag,PINK1 expr mod,TRPML1 agonist
Cc1ccc(S(=O)(=O)N(CCC(=O)N2CCOCC2)c2ccccc2)cc1,-1,3,5,-0.8,0.2%,0.1
Cc1nnc(SCC(=O)NCc2ccco2)n1-c1ccc(F)cc1,-5,2,7,-1.7,-0.5%,-0.9
O=C1CCc2cc(S(=O)(=O)NC(Cc3ccccc3)C(=O)NC3CCCC3)ccc2N1 (centres undefined),2,-10,0,-3.6,3.4%,-0.5
COc1cc(OC)cc(C(=O)NC(C(=O)Nc2ccc3c(c2)OCO3)C(C)C)c1 (centres undefined),9,-6,x,-2.2,0.9%,-1.9
CC1=C(C(=O)OCC2CCCO2)C(c2ccncc2)C2=C(CCCC2=O)N1 (centres undefined),-9,-11,-14,-3.1,2.4%,0.7
Cc1ccsc1/C=N/N1CCN(c2ccccn2)CC1,3,-24,-24,3.4,2.2%,0.9
Cc1ccccc1OCC(O)CN1CCN(c2ccccn2)CC1 (centres undefined),4,2,-12,-3.2,-1.9%,1.8
O=C(Nc1ccc(Br)cc1Br)C1CC(=O)N(Cc2ccccc2)C1 (centres undefined),-3,0,14,-1.7,3.2%,-0.6
Cc1cc(C)n(-c2ccc(Cl)c(C(=O)Nc3ccc(-c4nnc5n4CCCCC5)cc3)n2)n1,14,-26,-13,3.0,-0.2%,0.7

# Rows were taken by chance; any-hit rate near 1%.
